# RGS16-Gao – modulators of RGS16 binding to Galphao, primary screen, biochemical, human proteins, multiplexed bead flow cytometry. bead-based flow cytometry RGS16-Galphao binding, fluorescence; actives lie on both sides. binding response (% of control), % at 10 µM. actives 0.38% (n = 220,000). AID 1441, 2008;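 active = below 25% or above 175%, edge rows of some plates excepted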;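 note: Galphao activated by GDP with aluminum fluoride before binding; 100% = wells without compound and 0% = beads without RGS; some results beyond the cut were filed as inactive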
# Target sequence (O15492 whole entry, looked up): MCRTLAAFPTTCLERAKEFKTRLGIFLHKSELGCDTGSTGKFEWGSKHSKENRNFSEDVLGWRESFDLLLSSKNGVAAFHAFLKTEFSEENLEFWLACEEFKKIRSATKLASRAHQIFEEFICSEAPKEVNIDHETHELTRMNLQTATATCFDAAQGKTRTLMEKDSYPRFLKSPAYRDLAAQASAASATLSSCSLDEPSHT
# Target sequence (P09471 whole entry, looked up): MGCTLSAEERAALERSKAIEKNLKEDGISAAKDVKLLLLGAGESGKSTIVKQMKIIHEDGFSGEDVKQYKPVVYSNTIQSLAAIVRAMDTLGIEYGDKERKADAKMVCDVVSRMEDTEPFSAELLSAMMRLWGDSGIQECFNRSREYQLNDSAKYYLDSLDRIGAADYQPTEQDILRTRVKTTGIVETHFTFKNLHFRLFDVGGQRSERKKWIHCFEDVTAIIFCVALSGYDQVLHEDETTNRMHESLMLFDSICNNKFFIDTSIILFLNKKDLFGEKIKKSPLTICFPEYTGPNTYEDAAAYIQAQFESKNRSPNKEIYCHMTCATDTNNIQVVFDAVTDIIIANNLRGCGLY
# HSV augment – enhancers of HSV replication in host cells, fold increase, host cell viability; HSV replication augmentation in cells; maximum fold increase; actives 0.005% (n = 220,000); AID 1956, 2009;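 active = peak rise of 1.5-fold or more in the series; inconclusive = self-fluorescent or not available for retest; tested in PC3 cells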;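 note: first round at 10 µM; read as green reporter fluorescence; hits show the peak of a series up to 25 µM; 1 = signal of infected wells without compound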
# PKD1 inh – inhibitors of human PKD1 kinase, biochemical, fluorescence polarization; actives 0.056% (n = 200,000); inhibition, %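 (about 10 µM by stock and volumes)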; PKD1 kinase fluorescence polarization assay; Serine/threonine-protein kinase D1 (Homo sapiens), Q15139; AID 797, 2007;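 active = inhibition of 50% or more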;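 note: controls were vehicle for no effect and a reference inhibitor for full effect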
# INS promoter inh – inhibitors of insulin promoter-driven GFP, primary screen, imaging, TRM-6 cells (human fetal islet line), eGFP reporter, cell count; reporter expression induced with tamoxifen; inhibition, % at 2 µM; actives 0.9% (n = 130,000);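 active = inhibition above the mean plus 3 SD, with well images judged a real hit on visual review, cut at about 60% in these data, passing the limit was not always enough; inconclusive = inhibition over the cutoff but images rejected on review; inactive = inhibition not above the cutoff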
# GALR2 agonist – GALR2 receptor agonists, primary screen, cell-based | Galanin receptor type 2 (Homo sapiens), O43603 | GALR2-expressing cells, agonist activation read-out | activation, %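 (tested at 5 µM)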 | actives 0.48% (n = 140,000);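 active = above mean plus 3 SD of all compounds, about 5% in these data, not always enough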;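 note: 0% = vehicle buffer wells and 100% = reference agonist at full effect; tested in CHO reporter cells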
# Target sequence (O43603 whole entry, looked up): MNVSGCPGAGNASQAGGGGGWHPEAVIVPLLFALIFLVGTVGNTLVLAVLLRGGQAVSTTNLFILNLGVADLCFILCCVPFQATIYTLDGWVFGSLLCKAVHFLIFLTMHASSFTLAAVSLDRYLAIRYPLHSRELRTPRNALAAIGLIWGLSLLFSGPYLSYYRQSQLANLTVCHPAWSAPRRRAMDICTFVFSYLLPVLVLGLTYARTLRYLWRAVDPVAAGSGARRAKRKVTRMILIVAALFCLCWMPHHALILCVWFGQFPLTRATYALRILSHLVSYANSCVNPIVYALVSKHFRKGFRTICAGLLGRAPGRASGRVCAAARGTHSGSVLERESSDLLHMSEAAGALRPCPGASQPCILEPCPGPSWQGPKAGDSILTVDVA
# INS promoter inh cell count – second read-out of INS promoter inh, no call of its own (marks repeat the call); normalized cell count, %; measured here: cell count, toxicity; reference of the scale not given here;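 cells exposed to compound for 48 h; stained nuclei by imaging scaled within each plate; lower means fewer cells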
# HSV augment primary fold – further read-out of HSV augment, marked with its call; fold increase; compound at 10 µM; measured here: primary screen fold increase 10 uM; tested in PC3 cells;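 GFP signal in the first replicate; 1 = infected wells without compound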
# * = called active by the depositor; i = inactive; ? = inconclusive; . = not tested or not shown.
SMILES,RGS16-Gao,HSV augment,HSV augment primary fold,PKD1 inh,INS promoter inh,INS promoter inh cell count,GALR2 agonist
Clc1ccc(CNc2nnnn2-c2ccccc2)c(Cl)c1,88,i,0.99,-4,-1,116,-1.9
O=C1CCN(S(=O)(=O)c2ccccc2)CCN1CCOCc1ccc(C(F)(F)F)cc1,100,i,1,.,.,.,.
c1ccc(C2CC(c3cccs3)Nc3nnnn32)cc1 (stereo not given),100,i,1,1,-48,91,.
COc1cccc(NC(=S)Nc2ccc(O)cc2)c1,101,i,1,.,.,.,.
CCC(=O)Nc1sc(Cc2ccc3c(c2)OCO3)c(C)c1C(N)=O,93,i,0.98,.,.,.,.
Cc1ccc(S(=O)(=O)NCCSc2ccccc2)cc1[N+](=O)[O-],99,i,1.1,-6,-4,109,-1.7
Cc1nc(CSc2n[nH]c(=O)n2-c2ccccc2)cs1,100,i,0.99,.,.,.,.
COc1ccccc1-c1ccc(SCc2cccc(C)c2)nn1,97,i,0.99,-3,.,.,.
COc1ccc(NC(=O)CC2CCCCC2)cc1OC,102,i,1,8,10,95,-1.3
COCCNc1nnc(SCC(=O)N2CCN(S(=O)(=O)c3ccccc3)CC2)s1,100,i,1.1,-7,.,.,-1.2
CC(=O)Nc1ccc2ccccc2c1,105,i,0.66,-1,23,120,-1.2
COc1ccc(-c2noc(-c3ccc(Cl)cc3[N+](=O)[O-])n2)cc1OC,114,i,0.95,6,26,108,-0.8
CCOc1cc(N2CCOCC2)c(OCC)cc1NC(C)C(=O)N1CCC(C)CC1 (stereo not given),101,i,1.2,-9,.,.,0.1
Cc1ccccc1N/C(SCc1ccc(Cl)cc1)=C(/C#N)C(N)=O,93,i,0.95,-7,3,126,-1.2
Cc1ccc(/C=C(\NC(=O)c2ccccc2)C(=O)NCCc2ccccn2)o1,95,i,1.1,-1,-19,66,-1.7
Cc1ccc(S(=O)(=O)N2CCN(CC(=O)NC3CCCc4ccccc43)CC2)cc1C (stereo not given),101,i,1,-4,-8,87,-1.0
CC(=O)N(CCC(c1ccco1)C(C)C)Cc1ccc(Cl)cc1 (stereo not given),98,i,0.94,.,.,.,.
CC1(C)CC(=O)C=C(NCCN2CCN(C(=S)Nc3ccccc3)CC2)C1,97,i,0.89,.,.,.,.
O=C(Nc1cc(C(F)(F)F)ccc1N1CCOCC1)c1cccc(F)c1,101,i,1,-7,-28,147,-0.2
COCCn1c(SCc2cccnc2)nnc1-c1ccco1,102,i,0.97,-14,-58,91,-1.4
Cc1cc(C)cc(N2CC(c3nc4ccccc4n3C)CC2=O)c1 (stereo not given),108,i,0.97,7,.,.,-2.4
CCCCN(CC)CCCNC(=S)Nc1ccc2nc(N3CCN(CC)CC3)cc(C)c2c1,101,i,0.8,4,.,.,.
COc1ccccc1/C=C/CN1CCN(Cc2ccc(C)o2)C(CCO)C1 (stereo not given),99,i,1.1,-7,.,.,.
CCc1sc(NC(=O)c2cc3ccccc3oc2=O)nc1-c1cccs1,111,i,0.94,-6,-12,169,-0.8
COc1ccccc1CCc1nnc(CCC(=O)NCCCOc2cccnc2)o1,101,i,0.86,16,.,.,.
COC(=O)C(NC(=O)c1c(C)nn(C)c1Cl)c1ccccc1 (stereo not given),98,i,1,-7,.,.,.
COc1ccc2sc(NC(=O)c3ccco3)nc2c1,111,i,0.88,-8,-14,143,-2.1
Cc1ccsc1/C=N/n1c(-c2ccccn2)n[nH]c1=S,96,i,1.1,0,-25,53,-0.7
CCOC(=O)CNC(=O)c1nn(-c2ccc(OCC)cc2)c(=O)c2ccccc12,95,i,0.91,-7,.,.,-1.1
COc1ccc(OCC2CNC(=O)O2)cc1 (stereo not given),141,i,1,-4,0,94,-0.5
CC1Cc2cc(/C=C3/SC(=S)NC3=O)ccc2O1 (stereo not given),97,i,0.85,.,.,.,.
CN(C(=O)c1c(Cl)cnn1C)C12CC3CC(CC(C3)C1)C2,99,i,1.3,1,.,.,-0.1
CCCCN1C=CC(=C2C(=O)c3ccccc3C2=O)C=C1,110,i,0.93,-1,20,66,.
COc1ccccc1N1CCN(C(=O)C2CCN(S(=O)(=O)c3ccc(C)cc3)CC2)CC1,99,i,1.2,-2,6,145,.
COc1cc(/C=C2\C(=N)N3N=CSC3=NC2=O)cc(Br)c1OC(=O)c1ccco1,102,?,.,3,.,.,.
O=C(CCn1c(=O)oc2ccccc21)N1CCCCCC1,101,i,0.92,-6,45,67,-2.5

# Single records, from the list above. Values in the order: RGS16-Gao	HSV augment	HSV augment primary fold	PKD1 inh	INS promoter inh	INS promoter inh cell count	GALR2 agonist
# COc1ccccc1CCc1nnc(CCC(=O)NCCCOc2cccnc2)o1 as listed: 101	i	0.86	16	.	.	.
# CCOC(=O)CNC(=O)c1nn(-c2ccc(OCC)cc2)c(=O)c2ccccc12 as listed: 95	i	0.91	-7	.	.	-1.1

# Other entries follow.
SMILES,RGS16-Gao,HSV augment,HSV augment primary fold,PKD1 inh,INS promoter inh,INS promoter inh cell count,GALR2 agonist
CCn1c(SCc2nc3ccccc3[nH]2)nnc1-c1cccs1,102,i,0.95,-3,6,71,-0.9
C[C@H](NC(=O)OC(C)(C)C)C(=O)N/N=C/c1cccc2nccnc12,102,i,0.95,.,.,.,.
Cc1cc2c(cc1C)[n+](C)cn2CC(O)COCC1CC=CCC1 (stereo not given),111,i,0.95,1,-11,174,.
CC1=NN(c2ccc(Cl)cc2)C(=O)C1C(c1cccc(O)c1)c1c(C)[nH]n(-c2ccc(Cl)cc2)c1=O (stereo not given),89,i,0.9,0,.,.,-0.6
O=C(CCn1c(=O)oc2ccccc21)NCCCN1CCN(c2ccc(F)cc2)CC1,103,i,0.78,4,.,.,-1.1
O=C(Nc1ccccc1)c1nc2ccccc2s1,42,i,0.66,-5,15,89,-1.9
COc1cc(/C=C/C(=O)NCCn2c(C)cc3ccccc32)cc(OC)c1OC,.,i,0.88,0,-152,54,-2.6
Cc1ccc(-c2nn(CC(=O)NCc3ccco3)c(=O)c3ccccc23)cc1,78,i,0.93,-7,15,87,-0.9
COc1cc(OC)cc(C2=NCCN2)c1,68,i,1.1,0,.,.,.
CCc1nnc(NC(=O)Cc2sc(C)nc2-c2ccc(C)cc2)s1,104,i,0.89,-4,.,.,.
COc1ccc(NS(=O)(=O)c2ccc(N3CCOCC3)c(NC(=O)c3ccccc3Br)c2)cc1,98,i,0.94,.,.,.,.
COc1ccc(-c2nnc(SCc3ccccn3)n2C)cc1,102,i,0.97,-7,53,128,-1.2

# A second format for part of the listing above.
smiles	RGS16-Gao	HSV augment	HSV augment primary fold	PKD1 inh	INS promoter inh	INS promoter inh cell count	GALR2 agonist
CCn1c(SCc2nc3ccccc3[nH]2)nnc1-c1cccs1	102	i	0.95	-3	6	71	-0.9
C[C@H](NC(=O)OC(C)(C)C)C(=O)N/N=C/c1cccc2nccnc12	102	i	0.95	.	.	.	.
Cc1cc2c(cc1C)[n+](C)cn2CC(O)COCC1CC=CCC1 (stereo not given)	111	i	0.95	1	-11	174	.
CC1=NN(c2ccc(Cl)cc2)C(=O)C1C(c1cccc(O)c1)c1c(C)[nH]n(-c2ccc(Cl)cc2)c1=O (stereo not given)	89	i	0.9	0	.	.	-0.6
O=C(CCn1c(=O)oc2ccccc21)NCCCN1CCN(c2ccc(F)cc2)CC1	103	i	0.78	4	.	.	-1.1

# Next part:
SMILES,RGS16-Gao,HSV augment,HSV augment primary fold,PKD1 inh,INS promoter inh,INS promoter inh cell count,GALR2 agonist
CC1(C)C2CCC1(C)C(OC(=O)C[n+]1ccccc1N)C2 (stereo not given),103,i,1,.,.,.,.
CCCOc1ccc(/C(O)=C2/C(=O)C(=O)N(CCCn3ccnc3)C2c2ccc(C)o2)cc1 (stereo not given),99,i,0.92,.,.,.,.
COc1cnc(-c2ccccn2)nc1Oc1ccccc1,105,i,0.85,11,-15,101,.
Clc1ccc(C2NCCc3sccc32)cc1 (stereo not given),104,i,0.96,5,.,.,.
CCN(CC)S(=O)(=O)c1ccc(OC)c(NC(=O)COc2ccc3c(C)cc(=O)oc3c2)c1,90,i,1.1,8,.,.,1.5
CCOC(=O)c1c(NC(=O)CSc2nnc(C)s2)sc2c1CCC(CC)C2 (stereo not given),97,i,0.86,-3,-3,96,-0.9
Cc1ccc(/C(O)=C2\C(=O)C(=O)N(CC(C)O)C2c2ccccn2)cc1 (stereo not given),101,i,1.1,-5,-43,87,.
O=C(Nc1ccc(Cl)cc1)c1ccc(-c2ccccn2)s1,104,i,0.95,.,.,.,.
Cn1cc(C(=O)N/N=C/c2cccc([N+](=O)[O-])c2)c2ccccc21,98,i,1,.,.,.,.
COc1cccc(CC(NC(C)=O)C(=O)NC2CCN(C(=O)C3CC3)CC2)c1OC (stereo not given),104,i,1.1,3,-21,134,.
O=C(Sc1ccccc1)c1cccc(Cn2cc(C(F)(F)F)ccc2=O)c1,97,i,1.1,.,.,.,.
NC(=O)Cc1ccc2sc(-c3ccccc3)nc2c1,24*,i,0.97,-2,-12,60,-0.1
COc1ccc(C2/C=C\CN(S(=O)(=O)c3ccc(-c4ccccc4)cc3)CC(=O)N2Cc2ccc(F)cc2)cc1 (stereo not given),105,i,0.81,.,.,.,.
Cc1ccc(OCc2nnc(SCC(=O)N3CCOCC3)n2C)cc1,103,i,0.92,4,-8,84,-0.1
Cn1cc[nH]c1=S,119,.,.,-5,38,66,-2.1
CCOc1cc(C(=O)NC(=S)Nc2cccnc2)cc(OCC)c1OCC,95,i,0.92,-8,31,155,0.5
COC(=O)c1ccc(Nc2c([N+](=O)[O-])c(=O)oc3ccccc23)cc1,102,i,1.3,.,.,.,.
Cc1oc(-c2ccccc2)cc1C(=O)Nc1cccc(/C=C\C(=O)O)c1,100,i,1,-4,.,.,.
O=C(CSc1nc2ccccc2o1)c1cc2ccccc2oc1=O,121,i,1.2,7,-11,82,-0.5
O=S(=O)(c1ccc(NC(=S)Nc2ccc(OC(F)F)cc2)cc1)N1CCOCC1,93,i,0.93,-9,36,124,-0.4
Cc1ccc(N(NC(=O)C(C)(C)O)C(=O)c2ccccc2)cc1C,108,i,0.99,5,-50,84,-1.1
N#CC(C#N)=C(Nc1ccccc1)c1ccccc1,102,i,1,2,0,129,.
Cc1cc(-c2ccccc2)nc(-c2ccccc2)c1C,96,i,1.1,1,.,.,.
O=C(O)c1cc2nc3c(c(C(F)(F)F)n2n1)CCc1ccccc1-3,-6.0*,i,1.1,7,57,58,-1.2
COc1ccc(-n2c(C)c(C(C)=O)c(C(C)=O)c2C)cc1,100,i,0.74,7,.,.,-3.3
COC(=O)CNC(=O)c1sc2ncn(CC(=O)Nc3ccc(C)c(Cl)c3)c(=O)c2c1C,96,i,0.96,-3,7,134,.
O=C(N/N=C/c1ccsc1)c1cc(-c2ccncc2)nc2ccccc12,105,i,0.63,-13,-40,42,-1.1
CCCCC(=O)c1c(C)cc(C)[nH]c1=O,100,i,1,5,.,.,-0.9
COc1ccc(OC)c(N(CC(=O)Nc2cccnc2)S(C)(=O)=O)c1,104,i,0.85,4,29,169,-1.7
COc1ccc(C(=O)Nc2nc(C)cs2)cc1S(=O)(=O)N1CCCC1,102,i,1.1,-1,-221,89,.
CCOC(=O)c1sc(Nc2ccc(F)cc2)nc1C,103,i,1,3,.,.,.
CCCNC(=O)CSc1nccn1Cc1ccc(OC)cc1,101,i,1,-8,43,89,.
CCc1ccc(NC(=O)C(C)OC(=O)CCC(=O)c2cccs2)cc1 (stereo not given),116,i,1,-7,3,121,-1.4
Cc1ccc2c(COC(=O)C3=COCCO3)cc(=O)oc2c1,100,i,0.96,-5,.,.,-2.4
COc1ccc(CNc2nc3c(c(=O)[nH]c(=O)n3C)n2Cc2ccccc2C)cc1,102,i,0.93,-1,.,.,-0.2
Cc1c(C(c2cccs2)c2c(C)n(C)n(-c3ccccc3)c2=O)c(=O)n(-c2ccccc2)n1C,101,i,1,.,.,.,.
CC(Oc1ccc(Cl)cc1Cl)C(=O)NC(=S)N1CCc2ccccc21 (stereo not given),91,i,0.86,-5,-6,62,-3.0
Cc1nnc(SCc2cccc([N+](=O)[O-])c2)[nH]c1=O,91,i,1,-2,-7,109,.
S=C(NC1CCCCC1)NC1CC2C=CC1C2 (stereo not given),90,i,0.94,.,.,.,.
COc1ccc(CCNC(=O)CN(c2ccc(C)cc2)S(=O)(=O)c2c(C)noc2C)cc1OC,97,i,1.1,3,.,.,-1.3
CC1(OC(=O)C2CCCC2)C(=O)C=C2C=C(c3ccsc3)N(Cc3ccccc3)C=C2C1=O (stereo not given),103,i,0.88,.,.,.,.

# Screening data: PubChem, several laboratories
